# Measles inh – inhibitors of measles virus growth in infected cells; z-score (test concentration not listed); 0.1% of 33,000 active; AID 745; infected Vero cells, GFP fluorescence, 64 h; active compounds read low;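 active = z-score under -3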;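 note: score is relative to mean and SD of the compound wells of a plate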
# Starred values were filed as active, the others as inactive. Only part of the results is shown, so the mix of outcomes need not match the whole.
SMILES,Measles inh
CCOC(=O)Cc1csc(NC(=O)c2cccc(C(F)(F)F)c2)n1,0.55
COc1ccccc1Cn1c(=S)[nH]c2cc(Cl)ccc2c1=O,-0.75
O=C(NCc1cccs1)c1cc(-c2cccs2)nc2ccccc12,-0.31
O=C(Nc1ccccn1)c1c(O)c2c([nH]c1=O)CCCC2,0.2
Cc1ccc(S(=O)(=O)N=C(Nc2cccc3ccccc23)c2ccccc2)cc1,-0.45
Cc1c(Cc2ccc(Cl)cc2)c(=O)n2c([nH]c3ccccc32)c1C#N,-1.1
COc1ccc(C2/C(=C(\O)c3ccc(Cl)cc3)C(=O)C(=O)N2CCN(C)C)cc1 (centres undefined),-0.2
O=C(Oc1ccc(N(C(=O)c2ccncc2)S(=O)(=O)c2ccc(Br)cc2)c2ccccc12)c1ccncc1,-0.15
CCOC(=O)C1=CN(c2ccc(F)cc2)C=C(C(=O)OCC)C1c1ccc(C)s1,-0.29
CCOC(=O)C1C(=O)CC(C)(O)C(C(=O)OCC)C1c1cccc([N+](=O)[O-])c1 (centres undefined),0.18
O=C(Nc1c2c(nn1-c1cccc(Cl)c1)CSC2)c1ccccc1I,0.37
CSc1ccc(C2SCC(=O)N2C2CCCCC2)cc1 (centres undefined),-1
CCN(C(=O)CCS(=O)(=O)c1cccc2nsnc12)c1ccccc1,0.62
COC(=O)c1ccc(N2CCCCCC2)c(NS(=O)(=O)c2ccc(OC)cc2)c1,-1.8
COc1ccc(C(F)(F)F)cc1NC(=O)c1sc2nc(-c3ccc(OC)c(OC)c3)ccc2c1N,0.86
COc1ccc(C2Nc3ccccc3C(=O)N2c2cccc3ccccc23)cc1CN1C(=O)c2ccccc2C1=O (centres undefined),-0.93
CC1CCN(C(=O)c2c[nH]c3ccc(S(=O)(=O)N4CCc5ccccc54)cc3c2=O)CC1,1.5
CCC(C)NC(=O)c1nn(-c2ccccc2OC)c(=O)c2ccccc12 (centres undefined),1.3
O=C(c1ccc(F)cc1)c1cccc(N=Cc2ccc(F)cc2)c1,-0.47
O=S(=O)(N=C(Nc1ccccn1)c1ccccc1)c1ccc(Br)cc1,-0.49

# Sorted by value in Measles inh (rising): 3 from the list above.
SMILES,Measles inh
O=S(=O)(N=C(Nc1ccccn1)c1ccccc1)c1ccc(Br)cc1,-0.49
CCOC(=O)C1=CN(c2ccc(F)cc2)C=C(C(=O)OCC)C1c1ccc(C)s1,-0.29
CCC(C)NC(=O)c1nn(-c2ccccc2OC)c(=O)c2ccccc12 (centres undefined),1.3

# Quoted at random: 6 compounds from above.
SMILES,Measles inh
COc1ccc(C2Nc3ccccc3C(=O)N2c2cccc3ccccc23)cc1CN1C(=O)c2ccccc2C1=O (centres undefined),-0.93
O=S(=O)(N=C(Nc1ccccn1)c1ccccc1)c1ccc(Br)cc1,-0.49
COC(=O)c1ccc(N2CCCCCC2)c(NS(=O)(=O)c2ccc(OC)cc2)c1,-1.8
O=C(c1ccc(F)cc1)c1cccc(N=Cc2ccc(F)cc2)c1,-0.47
CCN(C(=O)CCS(=O)(=O)c1cccc2nsnc12)c1ccccc1,0.62
CCC(C)NC(=O)c1nn(-c2ccccc2OC)c(=O)c2ccccc12 (centres undefined),1.3

# (listing goes on)
SMILES,Measles inh
CC(C)(C)n1nc2c(c1NC(=O)c1ccc(S(=O)(=O)N3CCCCC3)cc1)CS(=O)(=O)C2,1.1
Cc1sc2ncn(CC(=O)N3CCN(c4cccc(Cl)c4)CC3)c(=O)c2c1S(=O)(=O)N1CCC(C)CC1,-0.59
COc1ccc(Nc2nc(C)nc3sc4c(c23)CCCC4)c(OC)c1,-0.56
CC1(C)CC2(CC(C)(C)N1)OC(=O)N(CCN1C(=O)OC3(CC(C)(C)NC(C)(C)C3)C1(C)O)C2(C)O (centres undefined),0.53
CCCc1ccc(C(C)NC(=O)c2cc(C)on2)cc1 (centres undefined),0.34
COc1ccc(C(=O)N(Cc2ccccc2)c2ccccn2)cc1,-0.81
Cc1sc2ncnc(Sc3ncnc4sc(C)c(C)c34)c2c1C,0.76
O=C(c1cccn2c(=O)c3c4c(sc3nc12)CCCC4)N1CCN(c2ccccc2)CC1,-0.22
CC(=O)N1CCCc2cc(S(=O)(=O)N3CCC(N4CCCCC4)CC3)ccc21,2.6
CCOc1ccccc1N1CC(C(=O)O)CC1=O (centres undefined),-0.07
CC1CCN(CCCNS(=O)(=O)c2ccc3nc(-c4ccccc4)[nH]c3c2)CC1,1
CCC(C)NC(=O)c1ccc2c(c1)N(Cc1ccc(C)cc1)C(=O)c1ccccc1S2 (centres undefined),-0.04
CCOC(=O)c1c(NC(=O)Cc2ccc(OC)c(OC)c2)sc2c1CCCC2,-1.2
O=C(Nc1nnc(C2CC2)o1)c1ccc(S(=O)(=O)N2CCCC2)cc1,-0.49
COc1ccccc1Cn1c(=S)[nH]c2cc(C(=O)NCc3ccccc3Cl)ccc2c1=O,1.1
COc1ccc(S(=O)(=O)N2CCC(C(=O)NC3CCCCC3)CC2)cc1OC,0.12
CC(=O)OCc1cnc(C)c2oc(=Nc3ccc(C)c(F)c3)c(C(=O)Nc3ccc(C)cc3)cc12,-0.14
CCOC(=O)Cn1cc(-c2ccc([N+](=O)[O-])cc2)nc1SCc1ccccc1,-2.2
Cc1ccc(N2C(=O)c3ccc(C(=O)OCC(=O)c4ccc(Br)cc4)cc3C2=O)c(C)c1,-0.24
Cc1ccc(-n2nc3c(c2NC(=O)CCC2CCCC2)CS(=O)C3)cc1 (centres undefined),0.63
CC(C)OC(=O)c1cccc(C(=O)Nc2ccc(I)cc2)n1,1.4
CC1=NN(C(=O)c2sc3cc(F)ccc3c2Cl)C(O)(C(F)(F)F)C1 (centres undefined),-0.35
Cc1c(Cl)cccc1NC(=O)c1ccccc1Cl,-1.6
Cc1ccc(NC(=O)CSc2nc3nc(C)c(Cc4ccccc4Cl)c(C)n3n2)cc1,-0.11
O=C(CCCn1c(=O)[nH]c2ccsc2c1=O)NCCC1=CCCCC1,-0.34
Cc1nn(CC(=O)N(C)c2ccc(OC(F)(F)F)cc2)c(C)c1[N+](=O)[O-],-0.25
O=C(Nc1nc2n(n1)C(c1ccccc1)C=C(c1ccc(Cl)cc1)N2)c1ccco1 (centres undefined),3.2
N#Cc1c(N2C(=O)C3ON(c4ccc(Cl)cc4)C(c4ccco4)C3C2=O)sc2c1CCCC2 (centres undefined),0.08
O=c1[nH]c2ccccc2[nH]c1=O,-0.01
O=c1[nH]c2c(s1)C(c1cccs1)C1C3CCC(C3)C1S2 (centres undefined),0.13
CCN(CC)CC(O)CN(C)C1=NS(=O)(=O)c2ccccc21 (centres undefined),0.82
CC1CCCC(C)N1CCCNC(=O)c1cc(Sc2ccc(F)cc2)nc2ccccc12 (centres undefined),0.99
Cc1nc(Cl)c(C(=O)O)c(C)c1[N+](=O)[O-],1.3
Cc1c(N(C)C(=O)C23CC4CC(CC(C4)C2)C3)c(=O)n(-c2ccccc2)n1C,0.09
O=C(Nc1ccc2ccccc2c1)c1cccc([N+](=O)[O-])c1,-0.3
COc1ccc(NC(=O)c2cc(-c3ccc(Br)cc3)nc3ccccc23)cc1,-0.5
CC(=O)N1CCCc2cc(S(=O)(=O)N3CCCC(C)C3)ccc21 (centres undefined),0.77
CC(C)C(=O)Nc1cc(-c2nc3cc(C(C)C)ccc3o2)ccc1Cl,0.77
CCc1ccc(-c2cn(-c3ccc(OC)cc3)c(=S)[nH]2)cc1,-0.09
Cc1ccc(NC2=NC(C)(C)N=C(N)N2)cc1,0.54
N#CCCSc1nccn1Cc1ccccc1,0.89
CCn1c(=NC(=O)c2ccc(S(=O)(=O)N(C)Cc3ccccc3)cc2)sc2cc(OC)ccc21,1.5
CCC(=O)N1CCc2cc(S(=O)(=O)Nc3cccc4c3CCCC4)ccc21,0.04
C=CCc1cccc2cc(C(=O)Nc3cccc(C(=O)O)c3)c(=O)oc12,-0.34
Cn1cnnc1SCc1cn2cc(Cl)ccc2n1,0.68
COc1cccc(C(=O)N2CCSC2=S)c1,1.4
Cc1ccc(NS(=O)(=O)c2cccc3c(S(=O)(=O)Nc4ccc(C)cc4C)cccc23)c(C)c1,1
CCC1CCC(=O)C(C2(O)C(=O)Nc3ccccc32)C1 (centres undefined),-1.6
O=C(Nc1ccc2c(c1)C(=O)c1ccccc1C2=O)c1cccs1,0.41
CCC(=O)N1CCc2cc(S(=O)(=O)CCC(=O)Nc3ccccc3OC)ccc21,0.71

# The list continues:
SMILES,Measles inh
CCc1ccc(C(=O)CC2(O)C(=O)N(Cc3ccc(C)cc3)c3ccc(Cl)cc32)cc1 (centres undefined),-0.36
NC(=O)C1(N2CCCCC2)CCN(C2CC(=O)N(c3ccc(F)cc3)C2=O)CC1 (centres undefined),-0.16
CCC(C)NC(=O)CN(c1ccccc1OC)S(=O)(=O)c1ccc(C)cc1 (centres undefined),-0.13
COc1ccc(CNc2ccc3[nH]c(=O)[nH]c3c2)cc1OC,-0.33
OCCNc1ncnc2ccc(Br)cc12,0.98
CCCCCCC(c1c(C)n(C)n(-c2ccccc2)c1=O)c1c(C)n(C)n(-c2ccccc2)c1=O,0.04
COc1ccc(Br)cc1C1SCC(=O)N1c1ccc(C)cc1 (centres undefined),-0.21
O=C(O)c1ccc(N2CCN(Cc3ccccc3)CC2)c([N+](=O)[O-])c1,-1
Cc1cccc2sc(NC(=O)c3ccccc3Oc3ccccc3)nc12,-0.75
O=C(Nc1ccc(Cl)c([N+](=O)[O-])c1)c1cccnc1,-0.34
COc1cccc(NC(=O)c2nn(C)cc2Br)c1,-0.81
O=C(Cn1c(-c2cncs2)nc2ccccc21)Nc1ccc(OC(F)(F)F)cc1,-0.09
CC(=O)c1ccc(OC(=O)c2cccc(Br)c2)cc1,-0.78
COc1ccc(NC(=O)CSc2nc3[nH]ncc3c(=O)n2-c2cccc3ccccc23)cc1OC,-0.12
COc1ccc(NC(=O)C(CC(=O)O)Cc2ccccc2)cc1 (centres undefined),-0.45
COc1cc(Nc2nc(-c3cccc(C)c3)nc3ccccc23)cc(OC)c1,-0.68
O=C(Nc1ccc2oc(-c3cccc(I)c3)nc2c1)c1cccc([N+](=O)[O-])c1,-1.2
CC1=C(C(=O)Nc2cccc(C)c2C)C(c2cccs2)NC(=O)N1 (centres undefined),0.08
COc1ccc(C2C(C(=O)NCc3ccccn3)c3ccccc3C(=O)N2c2ccc(OC)cc2)cc1 (centres undefined),-0.39
CCOC(=O)c1cc(-c2cccnc2)no1,1
CCOc1ccccc1NC(=O)C(NC(=O)C1CCC(C)CC1)C(C)C (centres undefined),0.93
CC(C)CC(C(=O)N1CCCCC1)N1C(=O)c2ccccc2C1=O (centres undefined),-0.98
CCOc1ccc2cc(C(N)=S)c(=N)oc2c1,-0.11
O=C(O)c1cc2c(ccc3ccccc32)o1,-0.26
COc1ccc(CCNC(=O)CN2C(=O)COc3ccc(C)cc32)cc1OC,2.1
O=C(NCc1ccccc1Cl)c1cc(-c2ccc(F)cc2)nc2ccccc12,1.1
N#Cc1ccccc1NC(=O)CSc1nnc(N)s1,-2.6
O=c1oc2ccccc2c(O)c1Sc1ccccc1,2.4
COc1ccccc1CNC(=O)c1cnc(Nc2ccc(C)c(Cl)c2)c2ccccc12,-1.1
O=C(CCCn1c(=S)[nH]c2ccsc2c1=O)Nc1ccc2c(c1)OCCO2,0.95
Cn1c(SCc2c[nH]c3cc([N+](=O)[O-])ccc23)nc2sc3c(c2c1=O)CCCC3,1.1
CCOc1ccc(NC(=O)c2csc3c2CCCC3)cc1,0.88
CC(CCc1ccccc1)NC(=O)C1CCN(S(=O)(=O)c2ccc(Br)s2)CC1 (centres undefined),-0.93
c1ccc(CN2CCN(c3ncnc4c3c(-c3ccccc3)cn4-c3ccccc3)CC2)cc1,0.26
O=C(Nc1cccc2ccccc12)c1ccccc1,-0.21
Fc1cccc(-c2nc3cc(N=CC=Cc4ccccc4)ccc3o2)c1,-1.8
Cc1ccc(C=Cc2nc3cc4ccccc4cc3n2C)o1,-0.61
Cc1ccc(CSC2=NCCN2C(=O)c2cc3ccccc3o2)cc1,1.1
COc1ccc(C(=O)Nc2cc(C(=O)N3CCOCC3)ccc2N2CC3CC(C2)c2cccc(=O)n2C3)cc1 (centres undefined),1.2
CCOCCCN1CC(C(=O)NCc2ccc3c(c2)OCO3)CC1=O (centres undefined),-0.36

# Look-ups from the entries so far:
# `c1ccc(CN2CCN(c3ncnc4c3c(-c3ccccc3)cn4-c3ccccc3)CC2)cc1` in Measles inh: 0.26
# `Cc1ccc(C=Cc2nc3cc4ccccc4cc3n2C)o1` in Measles inh: -0.61
# `O=C(Nc1cccc2ccccc12)c1ccccc1` in Measles inh: -0.21
# `CCOc1ccc(NC(=O)c2csc3c2CCCC3)cc1` in Measles inh: 0.88
# `Fc1cccc(-c2nc3cc(N=CC=Cc4ccccc4)ccc3o2)c1` in Measles inh: -1.8

# (continued)
SMILES,Measles inh
O=C(CC1SC(=Nc2ccccc2)N(c2ccccc2)C1=O)Nc1ccc([N+](=O)[O-])cc1 (centres undefined),-0.69
COc1cccc2cc(-c3nc4ccccc4[nH]3)c(=Nc3cccc(C#N)c3)oc12,-0.32
COc1ccccc1N1CCN(CC(O)COc2ccc(Cl)cc2C)CC1 (centres undefined),-0.13
CC1CC(=O)Nc2cc([N+](=O)[O-])ccc2N1 (centres undefined),-0.2
COc1ccccc1CNC(=O)CCn1c(=O)[nH]c2ccsc2c1=O,-0.65
NC(=O)c1cc(-c2cccnc2)no1,-1.8
COc1ccc(N2C(=O)CCC(C(=O)Nc3cccc(OC)c3)C2c2ccc(F)cc2)cc1 (centres undefined),-0.42
COc1ccc(NC(=O)C2CCCN(S(=O)(=O)c3ccc(Br)s3)C2)cc1OC (centres undefined),-0.73
COc1ccc(N2C(=O)CSC2c2cc(Br)ccc2OC)cc1 (centres undefined),-0.17
Cc1ccc(NC(=O)CCNS(=O)(=O)c2cccc3nsnc23)cc1,-0.5

# Shown as labelled records: four of the compounds above
COc1cccc2cc(-c3nc4ccccc4[nH]3)c(=Nc3cccc(C#N)c3)oc12
- Measles inh: -0.32
COc1ccccc1N1CCN(CC(O)COc2ccc(Cl)cc2C)CC1 (centres undefined)
- Measles inh: -0.13
CC1CC(=O)Nc2cc([N+](=O)[O-])ccc2N1 (centres undefined)
- Measles inh: -0.2
COc1ccccc1CNC(=O)CCn1c(=O)[nH]c2ccsc2c1=O
- Measles inh: -0.65

# Continuation:
SMILES,Measles inh
Cc1cccc(N=c2oc3ccccc3cc2-c2nc3ccccc3[nH]2)c1,-0.24
CCOc1ccc(CNc2ccc3c(c2)ncn3CC)cc1,0.99
COc1ccccc1NC(=O)CCCCCN1C(=O)c2cccc([N+](=O)[O-])c2C1=O,0.52
O=C1c2cccc3cccc(c23)C(=O)N1CCCCCc1n[nH]c(=S)o1,-1.1

# High-throughput results as filed in PubChem BioAssay.
